Screening data as filed in PubChem BioAssay.
VDR inh – blocks the human vitamin D receptor; Potency, µM, for the others: max response, negative = inhibition, most hits filed as inhibitors; VDR-SRC2-3 peptide fluorescence polarization, 2 h; AID 504847; 400,000 tested, 0.93% active; active means well fitted inhibition curve with a large enough effect; inconclusive means small, poorly fitted or top-dose-only effect, or another doubt; inactive means no such curve, though single readings can be large or run the other way; further: series mostly up to about 120 µM
Target sequence (P11473 whole entry, looked up): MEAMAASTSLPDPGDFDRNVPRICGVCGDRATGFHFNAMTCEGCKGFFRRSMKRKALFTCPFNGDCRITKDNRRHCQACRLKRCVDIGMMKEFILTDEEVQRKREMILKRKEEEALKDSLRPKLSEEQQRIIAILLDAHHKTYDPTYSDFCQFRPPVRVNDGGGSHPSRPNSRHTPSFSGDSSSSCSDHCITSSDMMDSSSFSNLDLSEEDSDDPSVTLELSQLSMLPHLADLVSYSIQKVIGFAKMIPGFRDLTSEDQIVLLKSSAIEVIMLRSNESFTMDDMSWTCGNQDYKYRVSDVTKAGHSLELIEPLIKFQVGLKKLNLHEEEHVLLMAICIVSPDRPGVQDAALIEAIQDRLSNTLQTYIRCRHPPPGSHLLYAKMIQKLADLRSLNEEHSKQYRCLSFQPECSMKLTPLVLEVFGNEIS
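Compounds are added to VDR with labelled SRC2-3 coactivator peptide and held 2 h at room temperature. Inhibition of the VDR–peptide interaction is then read as a change in fluorescence polarization.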
An asterisk follows results filed as active; ? = inconclusive; & = joins results of further samples. On the % scale 0 is the no-effect control and ±100 the full control effect; potency means the concentration at half of the fitted maximal effect. These rows are one share of the data; count on the stated rates, not on these rows.

The first 3 records as a preview:
VDR inh	Molecule
1%	CC(/C=N/NC(=O)CSc1ccccn1)=C\c1ccc(C(C)C)cc1
-24%	CN(C)/C=C1\C(=O)N(c2ccc(Cl)cc2)CS1(=O)=O
-6%	Cc1ccc(OCC(=O)NNC(=O)C2CSC3(C)CCC(=O)N23)cc1C (stereo not drawn)

Main list (from the top)
VDR inh	Molecule
1%	CC(/C=N/NC(=O)CSc1ccccn1)=C\c1ccc(C(C)C)cc1
-24%	CN(C)/C=C1\C(=O)N(c2ccc(Cl)cc2)CS1(=O)=O
-6%	Cc1ccc(OCC(=O)NNC(=O)C2CSC3(C)CCC(=O)N23)cc1C (stereo not drawn)
6%	COc1c(C)cc(C(=O)C2CCCN(C(=O)c3ccc4cc[nH]c4c3)C2)cc1C (stereo not drawn)
26%	COc1cccc(C(=O)OCC(=O)N2CCc3ccccc3C2)c1
-8%	COc1cc(C)c(NC(=O)C2CCN(S(=O)(=O)c3cccs3)CC2)cc1OC
-16%	CCNC(=S)N1CCN(S(=O)(=O)c2ccc(C)c(C)c2)CC1
-13%	Cc1cc(C)c(S(C)(=O)=O)c(Oc2ccccc2C)n1
6%	O=c1c2cc(Br)ccc2nc(-c2ccccc2)n1O
-8%	CN1CCN(CCCNC(=O)c2cnn(-c3ccccc3)c2C2CCN(C(=O)OC(C)(C)C)CC2)CC1
7%	O=C(CSc1nc(Nc2ccccc2)nc(N2CCOCC2)n1)Nc1ccc([N+](=O)[O-])cc1
-16%	O=C(COC(=O)c1cc[n+]([O-])cc1)Nc1c(Cl)cccc1C(F)(F)F
-10%	O=C(O)CN1C(=O)Nc2ccc(Br)cc2C1c1ccccc1 (stereo not drawn)
-4%	O=C(c1cnccn1)N1CCC[C@@]2(CCN(Cc3nccs3)C2)C1
-2%	CSC1=N/C(=C\C=C\c2cccs2)C(=O)S1
12%	COc1cccc(NC(=O)COC(=O)c2c(-c3ccccc3)noc2C)c1
-12%	COc1cc(/C=N/NC(=S)Nc2cccc(C(=O)O)c2)ccc1O
3%	Cc1ccccc1Cn1c(CN2CCC(C(=O)NCCc3ccccc3)CC2)cc2ccccc21
7%	Cc1cc(C)cc(-n2nnnc2SCC(=O)Nc2cccc(NC(=O)c3ccco3)c2)c1
89µM*	O=S(=O)(c1ccc2[nH]c3c(c2c1)CCCC3)N1CCCCC1
8%	CCn1c(COc2cccc(OC)c2)nnc1SCC(=O)NCC1CCCO1 (stereo not drawn)
-6%	Cn1c(=O)c2c(nc(N/N=C3\CCCc4ccccc43)n2Cc2ccc(F)cc2)n(C)c1=O
6%	N#CC1(NC(=O)CSc2nncn2-c2ccccc2F)CCCC1
1%	O=C(OCC#CCSc1nc2ccccc2o1)c1ccco1
5%	CCc1ccc2ncc3c(-c4ccc(C)cc4)nn(CC(=O)NCc4ccccc4)c3c2c1
7%	Cc1cc(C)n2c(Nc3ccccc3)c(-c3ccc(C)o3)nc2n1
3%	CCc1cccc(CC)c1NC(=O)C(CC)n1nc(C)n2c(cc3cc(C)ccc32)c1=O (stereo not drawn)
-3%	NC(=O)CC(NC(=O)OCc1ccccc1)C(=O)O (stereo not drawn)
5%	CCC1C=C(c2ccccc2)C=CN=C1N(CC)CC (stereo not drawn)
-14%	CC(C)[C@@H](C(=O)OCC(=O)c1ccc2c(c1)NC(=O)CO2)N1C(=O)c2ccccc2C1=O
10%	N#Cc1c(-c2cccs2)cc(-c2cccnc2)nc1N
1%	CCNC(=S)N1CCN=C1Nc1nc(C)cc(C)n1
-4%	CC1(c2ccc(NC(=O)c3ccccc3F)cc2)CC1(Cl)Cl (stereo not drawn)
-2%	Cc1cccc(C)c1NC(=O)CS(=O)CC(=O)N1CCN(c2ccccc2)CC1 (stereo not drawn)
-26%	COc1ccccc1CCc1nnc(CCC(=O)NC(C)Cc2cccc(C)n2)o1 (stereo not drawn)
9%	O=C(Cn1c(=O)oc2ccccc21)NCc1ccco1
6%	COc1ccccc1N1CCN(c2nc3ccccc3n3cnnc23)CC1
5%	O=C(N=Nc1c(O)n(Cc2ccccc2)c2ccccc12)c1ccncc1
-16%	CNC(=O)C1(C)C=CC2(CCCCC2)N1C(=O)OC (stereo not drawn)
-1%	COc1cc(NC(=O)CS(=O)(=O)c2ccccc2)cc(OC)c1OC
-12%	COc1ccc2[nH]cc(CCNC(=O)Cc3c(F)cccc3Cl)c2c1
-14%	Cc1c(Cl)cccc1NC(=O)CCN1C(=O)C2CC=CCC2C1=O (stereo not drawn)
-7%	O=C1CCC(C(=O)N2CCSCC2)CN1Cc1ccc(Cl)cc1 (stereo not drawn)
8%	CCOc1ccc(/C=C/C(=O)Nc2ccc(OC)cc2[N+](=O)[O-])cc1
-9%	O=C(COc1cccc(-n2cnnn2)c1)N1CCOCC1
-5%&-1%	COc1ccc(-c2nc3ccccc3s2)cc1NC(C)=O
-1%	O=C(O)c1ccc(C2(c3ccc(C(=O)O)cc3)OC(=O)c3ccccc32)cc1
1%	O=C(NCc1csc(-c2cccs2)n1)c1ccccc1
-13%	Cc1nn(-c2nc3ccccc3s2)c(N)c1-c1ccccc1
10%	O=C(NC[C@H]1CCCO1)c1cccc2c1C(=O)c1ccc(-c3ccc(F)cc3OCc3ccccc3)cc1S2(=O)=O
10%	CCCOc1ccc(CNC(=O)CCCn2nc(C)c3sc4ccccc4c3c2=O)cc1
-9%	N#Cc1ccc(OCC(=O)NNC(=O)C2CCCCC2)cc1
-6%	COCCNC(=O)C(c1ccc(F)cc1)N(Cc1ccco1)C(=O)CCC(=O)Nc1nccs1 (stereo not drawn)
6%	COC(=O)c1ccccc1NC(=O)CCCn1nc([N+](=O)[O-])c(Br)c1C
-5%	COC(=O)CC1COc2ccccc2N1C(=O)c1cccc(Cl)c1 (stereo not drawn)
-17%	COc1ccc2[nH]cc(CCNc3ncnc4ccc(-c5ccccc5OC)cc34)c2c1
-15%	CCOC(=O)N1CCC(NC(=O)CSCc2nc(-c3sccc3C)oc2C)CC1
25%	CCOC(=O)C1CCN(S(=O)(=O)c2ccc3c(c2)NC(=O)C(C)S3)CC1 (stereo not drawn)
-8%	Nc1nonc1-n1nnc(C(=O)N/N=C/c2cccnc2)c1-c1cccs1
5%	O=C(NCCOC(=O)C1COc2ccccc2O1)C1COc2ccccc2O1 (stereo not drawn)

Next structures:
VDR inh	Molecule
16%	COC(=O)c1cnn(-c2ccc(C(=O)Nc3ccc(OC(F)(F)F)cc3)cc2)c1N
23%	CCOC(=O)c1[nH]c(C)c(/C(O)=C2\C(=O)C(=O)N(CCN(C)C)C2c2ccco2)c1C (stereo not drawn)
-6%	COc1cccc(C(=O)N2CCN(Cc3ccc(OC)cc3OC)CC2)c1
-3%	COc1ccc(NC(=O)COCc2cc(-c3ccco3)on2)cc1
3%	O=C(NCc1ccc2c(c1)OCO2)C1COc2ccccc2O1 (stereo not drawn)
8%	CN(CC(=O)Nc1c(Cl)cccc1Cl)C(=O)c1cc(-c2cccs2)nn1-c1ccccc1
-16%	CC(CC(=O)Nc1cc([N+](=O)[O-])ccc1Cl)c1ccccc1 (stereo not drawn)
0%	COc1cc(OC)cc(C(=O)NC(=S)NCc2ccco2)c1
?	COc1ccccc1C(=O)Nc1cc(C)on1
-10%	COc1ccc(S(=O)(=O)N2CCC(C(=O)N3CCCCCC3)CC2)cc1
7%	CS(=O)(=O)c1ccc(C(=O)Nc2ccc(N3CCOCC3)cc2)c(Cl)c1
-9%	CCOc1cc(/C=N/NC(=O)c2ccc(NC(=O)C3CC3)cc2)ccc1O
-4%	N#Cc1c2n(c3c(=O)n(Cc4ccc(Cl)cc4)cnc13)CCCC2
-11%	C=CCOC(=O)C1=C(C)NC(SCC(=O)Nc2ccc(C)c(Cl)c2)=C(C#N)C1c1ccco1 (stereo not drawn)
-6%	Cn1ccc(C(=O)N2CCCc3ccccc32)n1

6 compounds already listed, ordered by the value under VDR inh, low to high.
| molecule | VDR inh |
| --- | --- |
| CC(CC(=O)Nc1cc([N+](=O)[O-])ccc1Cl)c1ccccc1 (stereo not drawn) | -16% |
| COc1cccc(C(=O)N2CCN(Cc3ccc(OC)cc3OC)CC2)c1 | -6% |
| N#Cc1c2n(c3c(=O)n(Cc4ccc(Cl)cc4)cnc13)CCCC2 | -4% |
| COc1ccc(NC(=O)COCc2cc(-c3ccco3)on2)cc1 | -3% |
| O=C(NCc1ccc2c(c1)OCO2)C1COc2ccccc2O1 (stereo not drawn) | 3% |
| CN(CC(=O)Nc1c(Cl)cccc1Cl)C(=O)c1cc(-c2cccs2)nn1-c1ccccc1 | 8% |

(list continues)
VDR inh	Molecule
2%	CSCc1ccc(C(=O)NCC(c2cccs2)N2CCOCC2)cc1 (stereo not drawn)
-23%	CS(=O)Cc1cc(Sc2ccccc2)nc(-c2cccnc2)n1 (stereo not drawn)
0%	Cc1cc(=O)[nH]c2nnc(SCc3ccc(Cl)c(Cl)c3)n12
4%	Cc1cc(C)c2[nH]c(=O)c(CN(Cc3ccc4c(c3)OCO4)Cc3nnnn3C3CCCC3)cc2c1
112µM*	COc1ccc(Cl)cc1-c1ccc(C(=O)O)o1
10%	CCn1cc(/C=C(\NC(=O)c2cc(OC)c(OC)c(OC)c2)C(=O)NCCN2CCOCC2)c2ccccc21
-5%	CSc1ccc(CCNC(=O)c2cc(C)nc3c2c(C)nn3-c2ccccc2)cc1
-4%	COC(=O)C(=O)Nc1nnc(COc2ccccc2)s1
7%	COc1ccc(CNC(=O)C2CC(c3cccc(OC)c3)=NO2)cc1 (stereo not drawn)
-5%	O=C(c1ccccc1Cl)N(Cc1ccc(Br)cc1)N1C(=O)CCCC1=O
-1%	C=C1CCC(C2CC(=O)OC2=O)C(=O)CCC2C1CC2(C)C (stereo not drawn)
4%	CCOC(=O)c1cccc(NC(=O)CSc2nc3cccnc3n2C)c1
-10%	CN1CCc2c(sc3nc(SCC(N)=O)n(-c4ccc(Cl)cc4)c(=O)c23)C1
12%	COc1ccc(CC(=O)Oc2ccc(C)cc2Br)cc1OC
10%	O=C(CNCC1CCCO1)N1CCCc2ccccc21 (stereo not drawn)
-3%	CCCN1C(=O)C(O)(C2CC(=O)CC(C)(C)O2)c2ccccc21 (stereo not drawn)
-12%	COc1cc2c(=O)c(S(=O)(=O)c3ccc(C)cc3)cn(Cc3cccc(C)c3)c2cc1OC
21%	CN(c1nc2nonc2nc1NC1CC1)C1CCOC1 (stereo not drawn)
-6%	Cc1cc(C(=O)NC(Cc2c[nH]c3ccccc23)C(=O)O)c(C)o1 (stereo not drawn)
0%	COC(=O)c1ccc(NC(=O)CSc2nc(C)cc(=O)[nH]2)cc1
5%	Cc1nn(C(=O)c2cccc([N+](=O)[O-])c2)c(C)c1Cl
0%	O=C(Nc1ccccc1-c1nnn(CC(=O)N2CCN(c3ccccc3)CC2)n1)c1cccs1
1%	Cc1nn(-c2cc(C(F)(F)F)ccn2)c(=O)o1
-14%	O=C(Nc1cccc2cccc(NC(=O)c3ccco3)c12)c1ccco1
-4%	C=CCNc1ccccc1S(=O)(=O)NCc1ccccc1
-9%	Cc1ccc(Nc2cccccc2=O)cc1
-17%	O=S(=O)(Nc1nc2ccccc2s1)c1cc(F)ccc1F
-19%	O=C(CSc1nnc(-c2ccccc2F)o1)OCc1ccccc1
-11%	CN(c1ccc(OCC(=O)NC2CCCC2)cc1)S(=O)(=O)c1cccs1
-9%	O=C(CN1CCSCC1)N/N=C/c1ccccc1F
-14%	CC[C@@H]1[C@H]2CCCC(=O)N3CC[C@@H](C[C@@H]1OC(=O)NCc1ccccc1)[C@@H]23
2%	COCC(C)NCc1cccc(C)c1 (stereo not drawn)
-13%	CCOc1ccc(C(=O)C2CCN(C(=O)c3ccc([N+](=O)[O-])cc3)CC2)cc1
13%	COC1CCCN(C(=O)c2ccc3nc(Cc4cccc(Cl)c4)oc3c2)C1 (stereo not drawn)
-9%	CNC(=O)/C(C#N)=C1/SC(Cc2ccc(F)cc2)C(=O)N1c1ccccc1 (stereo not drawn)
-7%	COc1ccc(NC(=O)CSc2nnc(Cc3cccs3)n2-c2ccc(C)cc2)cc1
-13%	N[C@@H](Cc1ccc(O)cc1)c1nnc([C@H](CCC(=O)O)NC(=O)C2CCNCC2)o1
2%	O=C(c1ccccc1)c1nc[nH]c1C(=O)Nc1ccccn1
3%	Cc1ccccc1CN1CCN(Cc2ccc3cccc(F)c3n2)CC1CCO (stereo not drawn)
-2%	CCc1cnc2c(c1SCC(=O)N1CCCCC1)c(=O)n(C)c(=O)n2C
2%	Cc1ccccc1NS(=O)(=O)c1ccc(OCC(=O)N2CCCCC2)cc1
-3%	CCc1c(C(=O)NNC(=O)Nc2ccc3c(c2)OCO3)csc1C
-2%	CCCCNC(=O)CCn1c(=O)c2ccccc2n(Cc2ccc(Cl)cc2)c1=O
0%	[N-]=[N+]=CC(=O)CCCN1C(=O)c2ccccc2C1=O

Four entries from above, sorted by length of the SMILES, high to low.
VDR inh	Molecule
-5%	CSc1ccc(CCNC(=O)c2cc(C)nc3c2c(C)nn3-c2ccccc2)cc1
-15%	CCOC(=O)N1CCC(NC(=O)CSCc2nc(-c3sccc3C)oc2C)CC1
-13%	Cc1nn(-c2nc3ccccc3s2)c(N)c1-c1ccccc1
1%	CCNC(=S)N1CCN=C1Nc1nc(C)cc(C)n1
